# Assay outcomes from PubChem.
# rRNA inh HTS: selective bacterial rRNA inhibition in E. coli. AID 720706. GFP signal change (wild-type ribosome), % (test concentration not listed). 1.6% of 350,000 active. E. coli WT GFP vs humanized-ribosome RFP mutants, fluorescence, 24 h; active compounds read low; DMSO median 0, no signal -100;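 active = significant combined selectivity score with lowered wild-type GFP, culture density cut under 30%, mutant RFP and density less affected; inactive = any of these conditions unmet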; also: one replicate is shown; some compounds called inactive have numbers as strong as hits
# FGF22 binding: shifts melting point of recombinant human FGF22 | 1.5% of 340,000 active | recombinant FGF22 thermal shift, SYPRO orange fluorescence; percent of sucrose octasulfate shift, DMSO zero | calls only at 9.99 µM | AID 651658 | Q9HCT0;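 active = melting point raised past a set limit in the mean and every replicate; three in four hits are not shown here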
# Target sequence (Q9HCT0 whole entry, looked up): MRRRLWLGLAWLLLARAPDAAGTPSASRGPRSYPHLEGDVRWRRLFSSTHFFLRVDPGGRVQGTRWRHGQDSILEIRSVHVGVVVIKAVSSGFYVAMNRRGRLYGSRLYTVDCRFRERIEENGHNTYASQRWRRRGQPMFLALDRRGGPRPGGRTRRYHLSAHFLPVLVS
# rRNA inh HTS OD600: second read-out of rRNA inh HTS, no call of its own (marks repeat the call); OD600 change, %; measured here: OD600 growth;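 optical density of the mix in the first replicate; 0 = DMSO median and -100 = no signal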
# rRNA inh HTS RFP: recorded beside rRNA inh HTS, whose call it bears; RFP signal change, %; measured here: RFP humanized mutant strains;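 first replicate; 0 = DMSO median and -100 = no signal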
# * marks the source's active call; other numbers are inactive results; i = inactive; nt = no result given; + = active, no number.
Structure	rRNA inh HTS	rRNA inh HTS OD600	rRNA inh HTS RFP	FGF22 binding
COc1ccccc1NC(=O)N1CC(=O)N2[C@H](C1)[C@@H](c1ccc(C#CC(C)C)cc1)[C@@H]2CO	-3.9	-21.9	6.3	i
C[C@H]1CN([C@@H](C)CO)C(=O)c2cc(NC(=O)NC3CCCCC3)ccc2O[C@@H]1CN(C)S(=O)(=O)c1cn(C)cn1	4.0	10.9	0.1	i
C[C@H]1CCCCO[C@H](CN(C)Cc2ccccc2)[C@@H](C)CN([C@@H](C)CO)C(=O)c2cc(NS(=O)(=O)c3cccs3)ccc2O1	-2.6	-3.7	0.2	i
CCS(=O)(=O)N[C@@H]1CC[C@@H](CC(=O)NC2Cc3ccccc3C2)O[C@@H]1CO	-2.0	-0.8	1.2	i
C[C@H]1CN([C@@H](C)CO)C(=O)c2cc(NS(=O)(=O)c3cccs3)ccc2O[C@H]1CN(C)C(=O)Nc1ccc(F)cc1	3.7	3.5	-0.4	i
COc1ccc(S(=O)(=O)N(C)C[C@H]2Oc3ccc(NC(=O)Nc4c(C)noc4C)cc3CC(=O)N([C@@H](C)CO)C[C@@H]2C)cc1	-3.7	-6.3	-1.5	i
Cc1ccc(S(=O)(=O)N(C)C[C@@H]2Oc3ccc(NC(=O)c4ccncc4)cc3C(=O)N([C@@H](C)CO)C[C@@H]2C)cc1	2.9	6.4	0.6	i
O=C(NC1CCCC1)N1CCCCN2[C@H](CO)[C@H](c3ccc(-c4ccncc4)cc3)[C@H]2C1	-1.7	-3.6	-1.0	i
CCCNC(=O)N1C[C@H](C)[C@@H](OC)CN(C)C(=O)c2cc(NS(=O)(=O)CC)ccc2OC[C@@H]1C	2.7	2.1	-0.2	i
COc1ccc(NC(=O)Nc2cccc3c2O[C@H](CN(C)C(=O)Nc2ccc(C(F)(F)F)cc2)[C@H](C)CN([C@@H](C)CO)C3=O)cc1	-5.5	1.5	0.6	i
COC(=O)C1=C(C)N(Cc2ccccc2C(F)(F)F)C(=NCc2ccc3c(c2)OCO3)NC1CCc1ccccc1 (stereo not drawn)	-56.9	-79.6	-17.9	i
CC=Cc1ccc2n(c1=O)C[C@H]1[C@H](CO)[C@@H](C(=O)NCC)N(Cc3cocn3)[C@@H]21 (mixture of isomers)	-1.6	-5.3	4.3	i
COc1ccc(-c2ccc([C@H]3[C@H]4CN(C(=O)C5CC5)CC(=O)N4[C@H]3CO)cc2)cc1	2.3	10.1	-0.5	i
COC(=O)C[C@@H]1C[C@@H]2c3cc(NC(=O)Nc4ccccc4F)ccc3O[C@@H]2[C@H](CO)O1	-5.8	-5.5	-1.7	i
Cc1noc(C)c1S(=O)(=O)N(C)C[C@@H]1OCCCC[C@H](C)Oc2ccc(NC(=O)CCC(F)(F)F)cc2C(=O)N([C@@H](C)CO)C[C@H]1C	-2.9	-3.2	2.8	i
Cc1ccc(-c2cnc3c(c2)C(=O)N([C@@H](C)CO)C[C@H](C)[C@@H](CN(C)S(C)(=O)=O)O3)cc1	0.2	-4.1	0.9	i
CC(C)NC(=O)N(C)C[C@H]1Oc2c(NS(=O)(=O)c3cn(C)cn3)cccc2C(=O)N([C@H](C)CO)C[C@H]1C	3.2	0.9	0.4	i
C[C@@H]1CN([C@@H](C)CO)S(=O)(=O)c2ccc(/C=C/c3ccccc3)cc2O[C@@H]1CN(C)C(=O)Nc1cccc(F)c1	-0.3	12.4	-0.1	i
C/C=C/c1ccc([C@@H]2[C@@H](CO)N(C(C)=O)[C@H]2CN(C)C(=O)NC2CCCC2)cc1	-3.8	13.4	-0.1	i
C[C@@H]1CN([C@H](C)CO)C(=O)c2cc(-c3cccc(C#N)c3)cnc2O[C@@H]1CN(C)C	-2.1	2.3	-0.6	i
C[C@H](CO)N1C[C@H](C)[C@H](CN(C)S(C)(=O)=O)Oc2c(NS(=O)(=O)c3cn(C)cn3)cccc2C1=O	2.8	-1.1	-0.2	i
O=C(C[C@@H]1C[C@@H]2c3cc(NC(=O)C4CCC4)ccc3O[C@@H]2[C@H](CO)O1)NCC1CC1	6.2	8.6	-4.5	i
C[C@H]1CCCCO[C@H](CN(C)CC2CCCCC2)[C@@H](C)CN([C@@H](C)CO)C(=O)c2cc(NC(=O)C3CCCCC3)ccc2O1	-10.8	-31.6	21.1	i
COc1ccccc1C#Cc1ccc2c(c1)O[C@@H](CN(C)C)[C@H](C)CN([C@@H](C)CO)S2(=O)=O	-5.1	-20.6	11.1	i
CN(C)CC(=O)Nc1ccc2c(c1)[C@H]1C[C@H](CC(=O)NCCN3CCCCC3)O[C@H](CO)[C@H]1O2	4.1	4.4	-1.7	i
Cc1cc(C(=O)Nc2cccc3c2O[C@@H](CN(C)C)[C@@H](C)CN([C@@H](C)CO)C3=O)n(C)n1	-4.3	-3.1	-4.8	i
C[C@@H]1CN([C@@H](C)CO)C(=O)c2cc(-c3cccc(F)c3)cnc2O[C@H]1CN(C)S(C)(=O)=O	2.8	2.7	0.0	i
O=C([C@H]1[C@H](CO)[C@H]2Cn3c(cccc3=O)[C@@H]1N2Cc1cocn1)N1CCCCC1	1.6	9.2	0.1	i
C[C@@H]1CN([C@H](C)CO)C(=O)c2cc(-c3ccccc3)cnc2O[C@H]1CN(C)C(=O)C1CCCCC1	-0.6	-2.1	-2.3	i
COCC#Cc1ccc2c(c1)O[C@@H](CN(C)C(=O)C1CCC1)[C@H](C)CN([C@H](C)CO)S2(=O)=O	-9.0	-23.1	1.5	i

# Continued, starting with the last four of the part before.
Structure	rRNA inh HTS	rRNA inh HTS OD600	rRNA inh HTS RFP	FGF22 binding
C[C@@H]1CN([C@@H](C)CO)C(=O)c2cc(-c3cccc(F)c3)cnc2O[C@H]1CN(C)S(C)(=O)=O	2.8	2.7	0.0	i
O=C([C@H]1[C@H](CO)[C@H]2Cn3c(cccc3=O)[C@@H]1N2Cc1cocn1)N1CCCCC1	1.6	9.2	0.1	i
C[C@@H]1CN([C@H](C)CO)C(=O)c2cc(-c3ccccc3)cnc2O[C@H]1CN(C)C(=O)C1CCCCC1	-0.6	-2.1	-2.3	i
COCC#Cc1ccc2c(c1)O[C@@H](CN(C)C(=O)C1CCC1)[C@H](C)CN([C@H](C)CO)S2(=O)=O	-9.0	-23.1	1.5	i
OC(c1ccccc1)(c1ccccc1)C1CCN(CCCOc2cccc(Cl)c2)CC1	-52.1	-75.7	-15.9	i
COc1ccc(CN2C[C@H](O)COC[C@H]3O[C@@H](CC(=O)NCCN4CCCC4)CC[C@@H]32)cc1	0.6	-12.7	-2.3	i
COCC(=O)NC[C@H]1[C@H](c2ccc(-c3ccccc3)cc2)[C@@H](CO)N1C(C)=O	0.8	3.6	-0.4	i
COc1cccc(C#Cc2ccc([C@H]3[C@@H](CO)N(C(=O)C4CC4)[C@H]3C#N)cc2)c1	1.3	3.3	-0.9	i
O=C(c1cccnc1)N1CCCCN2[C@H](C1)[C@H](c1ccc(C#Cc3cccnc3)cc1)[C@@H]2CO	0.4	6.9	2.0	i
CCCC#Cc1cnc2c(c1)C(=O)N([C@H](C)CO)C[C@H](C)[C@H](CN(C)Cc1cccnc1)O2	-0.4	2.2	-0.9	i
COCC(=O)N1CCC2(CC1)CN(Cc1ccccc1F)[C@H](CO)c1[nH]c3cc(OC)ccc3c12	3.7	4.7	0.2	i
CCC(=O)N(C)C[C@@H]1Oc2ncc(C#CC(C)C)cc2C(=O)N([C@H](C)CO)C[C@H]1C	-0.6	-0.7	0.7	i
C[C@@H]1CN([C@@H](C)CO)C(=O)c2cccc(NC(=O)Nc3ccc4c(c3)OCO4)c2O[C@@H]1CN(C)Cc1ccc(C(F)(F)F)cc1	2.6	-21.1	1.5	i
COc1ccccc1C(=O)N1C[C@@H]2[C@H](c3ccccc31)[C@H](CO)N2C(=O)Cc1cccnc1	2.3	7.5	-0.6	i
C[C@H]1CN([C@@H](C)CO)C(=O)c2cc(NS(=O)(=O)c3cn(C)cn3)ccc2O[C@@H]1CN(C)C(=O)Nc1cccc2ccccc12	-0.2	11.5	0.9	i
O=C(O)C[C@@H]1C[C@@H]2c3cc(NC(=O)Nc4ccccc4F)ccc3O[C@@H]2[C@H](CO)O1	0.2	17.4	-2.7	i
COc1ccc2c3c([nH]c2c1)[C@@H](CO)N(Cc1ccccc1)CC31CCN(C)CC1	4.6	8.3	4.4	i
Cc1cc(C(=O)Nc2cccc3c2O[C@H](CN(C)Cc2ccc4c(c2)OCO4)[C@@H](C)CN([C@@H](C)CO)C3=O)n(C)n1	-3.8	-6.5	2.5	i
C[C@H]1CN([C@@H](C)CO)C(=O)c2cccc(NC(=O)c3ccc(-c4nccs4)cc3)c2O[C@H]1CN(C)CC1CC1	-2.8	4.8	1.7	i
COc1cccc(NC(=O)N2C[C@H](O)COC[C@H]3O[C@H](CC(=O)NCCCN4CCOCC4)CC[C@@H]32)c1	2.1	5.3	0.7	i
C[C@@H]1CCCCO[C@H](CN(C)C(=O)NC2CCCCC2)[C@H](C)CN([C@H](C)CO)C(=O)c2cc(NC(=O)c3ccccc3)ccc2O1	-7.9	-7.6	2.1	i
CC(C)NC(=O)Nc1ccc2c(c1)C(=O)N(C)[C@H]1CC[C@H](CC(=O)NCC3CCCCC3)O[C@@H]1CO2	-7.9	-11.9	-2.5	i
C[C@@H]1CN([C@@H](C)CO)C(=O)c2cccc(NC(=O)c3ccncc3)c2O[C@@H]1CN(C)S(=O)(=O)c1cccs1	-0.7	6.1	-1.5	i
CC=Cc1ccc2n(c1=O)C[C@H]1[C@H](CO)[C@@H](C(=O)NCc3ccccc3)N(C)[C@@H]21 (mixture of isomers)	-1.3	0.6	-0.9	+
CCC(=O)N(C)C[C@@H]1Oc2cc(-c3cccc(F)c3)ccc2S(=O)(=O)N([C@H](C)CO)C[C@@H]1C	-5.9	-9.7	-1.9	i
C[C@@H]1CN([C@H](C)CO)C(=O)c2cc(-c3ccc(F)cc3)cnc2O[C@@H]1CN(C)C(=O)NC1CCCC1	-2.4	-14.8	-2.0	i
Cc1ccc(S(=O)(=O)N(C)C[C@H]2OCCCC[C@@H](C)Oc3ccc(NS(=O)(=O)c4cccs4)cc3C(=O)N([C@@H](C)CO)C[C@H]2C)cc1	-4.8	-3.7	2.1	i
C[C@@H]1CCCCO[C@H](CN(C)S(=O)(=O)c2ccc(Cl)cc2)[C@@H](C)CN([C@@H](C)CO)C(=O)c2cc(NC(=O)CCC(F)(F)F)ccc2O1	-7.5	-38.5	11.3	i
C[C@@H]1CCCCO[C@@H](CN(C)Cc2ccncc2)[C@H](C)CN([C@@H](C)CO)C(=O)c2cc(NC(=O)c3ccncc3)ccc2O1	-3.6	-4.0	-2.4	i
O=C(c1ccccc1)N1CC2(C1)[C@H](c1ccccc1)[C@H](CO)N2C(=O)CC1CC1	1.7	7.5	-0.8	i
COc1ccccc1C#Cc1ccc2c(c1)[C@@H]1[C@@H](CCN1C(=O)c1ccncc1)[C@@H](CO)N2	-9.1	-3.0	5.1	i
COc1ccccc1NC(=O)N1C[C@H](O)COC[C@@H]2O[C@@H](CC(=O)NCCc3ccncc3)CC[C@H]21	i	nt	nt	i
CN(C)C(=O)C[C@@H]1C[C@@H]2c3cc(NC(=O)C4CCOCC4)ccc3O[C@@H]2[C@H](CO)O1	3.0	9.1	-2.0	i
O=C(Cc1ccncc1)NCC[C@@H]1CC[C@H](NC(=O)C2CCOCC2)[C@H](CO)O1	1.4	-2.1	-0.9	i
C[C@@H]1CN([C@H](C)CO)C(=O)c2cc(N(C)C)ccc2O[C@@H](C)CCCCO[C@H]1CN(C)Cc1ccc(C(=O)O)cc1	0.1	0.7	-1.7	i
CCCC#Cc1ccc([C@H]2[C@@H](CO)N3C(=O)CN(C(=O)Nc4cccc(F)c4)C[C@@H]23)cc1	-40.7	-69.5	0.1	i
C[C@H](CO)N1C[C@H](C)[C@@H](CN(C)S(=O)(=O)c2ccc(Cl)cc2)OCCCC[C@H](C)Oc2ccc(NC(=O)NC3CCCCC3)cc2C1=O	0.0	2.5	-0.7	i
O=C(NCC[C@H]1CC[C@@H](NS(=O)(=O)c2cccc(F)c2)[C@H](CO)O1)C1CCC1	-0.1	-3.1	-0.3	i
COc1ccc(S(=O)(=O)N(C)C[C@H]2OCCCC[C@H](C)Oc3ccc(NC(=O)Nc4cccc5ccccc45)cc3C(=O)N([C@H](C)CO)C[C@H]2C)cc1	1.4	-1.5	-0.3	+
CO[C@H]1CC[C@H]2CCOc3c(C#N)cccc3C(=O)N(C)C[C@H](OC)[C@H](C)C(=O)N(C)C[C@@H]1O2	4.2	13.3	-0.6	i
Cc1ccc(S(=O)(=O)Nc2ccc3c(c2)C(=O)N([C@@H](C)CO)C[C@@H](C)[C@@H](CN(C)C(=O)Nc2cccc4ccccc24)OCCCC[C@H](C)O3)cc1	-3.5	5.3	-4.4	i
CN1c2ccc(Br)cc2[C@@H]2[C@@H](CCN2S(=O)(=O)c2cccc(F)c2)[C@H]1CO	-3.1	-11.5	1.6	i
C[C@H](CO)N1C[C@H](C)[C@H](CN(C)S(=O)(=O)c2cn(C)cn2)Oc2cc(C#Cc3ccccc3)ccc2S1(=O)=O	-3.7	4.3	1.4	i

# Some of the compounds tested. The share of hits here may be higher or lower than overall.
